# Six1-Eya2 inh = Six1/Eya2 interaction inhibition; Q15475+O00167; AlphaScreen GST-Six1/His-Eya2 binding, biochemical; active compounds read low; control for the full effect not named in the record; activity change, % (test concentration not listed); actives 0.56% (n = 360,000); AID 651725; in the data active = activity change below about -65%; inconclusive = about -30% to -65%; inactive = above about -30%; further: on the % scale 0 is the no-effect control and ±100 the full control effect
#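 AlphaScreen with GST-Six1 and His-Eya2 (5X mix: 250 nM and 500 nM), glutathione donor and nickel acceptor beads; buffer 50 mM Tris pH 8.0, 300 mM NaCl, 1 mM TCEP; 1 h at 37 C in the dark.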
# D2 ag = activates the human D2 dopamine receptor; P14416; DiscoveRx PathHunter D2 beta-arrestin, luminescence, 90 min; 100% = 57 uM dopamine signal; activation, % (no concentration beside the values); actives 0.084% (n = 360,000); AID 624465; in the data active = activation above about 40%; inconclusive = about 15% to 40%; inactive = below about 15%; further: compound concentration not given in the record; the text of the record calls up to 30% inactive
# Target sequence (P14416 whole entry, looked up): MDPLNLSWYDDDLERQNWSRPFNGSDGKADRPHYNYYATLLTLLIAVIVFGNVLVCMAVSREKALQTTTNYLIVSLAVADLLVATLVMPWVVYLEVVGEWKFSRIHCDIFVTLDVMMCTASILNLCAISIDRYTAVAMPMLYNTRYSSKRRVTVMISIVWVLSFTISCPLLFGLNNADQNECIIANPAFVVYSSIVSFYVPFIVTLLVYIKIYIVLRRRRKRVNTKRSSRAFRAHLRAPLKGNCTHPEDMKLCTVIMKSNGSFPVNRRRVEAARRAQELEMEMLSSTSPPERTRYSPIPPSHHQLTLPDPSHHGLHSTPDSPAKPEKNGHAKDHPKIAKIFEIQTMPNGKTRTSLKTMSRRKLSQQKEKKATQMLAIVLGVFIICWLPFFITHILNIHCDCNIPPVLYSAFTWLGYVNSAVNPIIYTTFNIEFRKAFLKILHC
#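 Agonist mode: compounds alone added to overnight-plated D2 PathHunter cells for 90 min at 37 C, with 57 uM final dopamine (EC100) defining full response. Beta-arrestin recruitment detected by chemiluminescent reagent, read after 1 h at ambient temperature.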
# TRPV1 potentiator = human TRPV1 potentiation | AID 540277 | TRPV1-expressing cells, Fluo-8 calcium influx, capsaicin EC20 potentiation; host cell line not named in the record; control for the full effect not named in the record | Q8NER1 | potentiation, % at 8.33 µM | actives 0.02% (n = 320,000); active means potentiation above 80%; inconclusive means 30% to 80%; inactive means below 30%; further: 0% is about no effect
#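 Fluo-8 calcium influx in TRPV1-expressing cells, kinetic read (ex 480/em 520 nm). Compound added and read 3 min for agonist activity, followed by capsaicin at EC20 final and 2 min further read for enhancement.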
# Sfp inh = inhibitors of Bacillus subtilis Sfp phosphopantetheinyl transferase; Q9F4F7; Biochemical Sfp PPTase activity, qHTS; Potency, µM, without a hit: max response, negative = inhibition, actives largely listed as inhibitors; actives 3.5% (n = 310,000); AID 1490; active means well fitted inhibition curve with a large enough effect; inconclusive means small, poorly fitted or top-dose-only effect, or another doubt; inactive means no such curve, though single readings can be large or run the other way;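 further: the enzyme is Sfp with the accession as filed and its product quenches rhodamine fluorescence; potency means the concentration at half of the fitted maximal effect; 0% = enzyme reaction without inhibitor and -100% = no enzyme wells; top concentration of the series not given in the record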
#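 With Hepes-Na pH 7.6 buffer containing 10 mM MgCl2, Sfp (15 nM) modified BHQ-2-YbbR (12.5 uM) using rhodamine-CoA (5 uM). Two reads 30 minutes apart at 525/598 nm yielded each well's rate.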
# PINK1 expr mod = changes PINK1 expression. actives 0.2% (n = 410,000). AID 624263. PINK1 immunofluorescence, high-content cytometry, 24 h. Potency, µM (top dose mostly 76.6 µM), for inactives: at the top dose activation (PINK1 increase), most hits filed as activators; active = well fitted activation curve with a large enough effect; inconclusive = small, poorly fitted or top-dose-only effect; inactive = flat fitted curve, though single readings scatter; cell line not stated here;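 further: potency means the concentration at half of the fitted maximal effect; % of control where 0% means no effect; nearly all actives have a fitted effect of over 65% in size; a mitochondrial uncoupler was the plate control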
#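 A stable cell line was treated with compounds at 5 concentrations for 24 hours, with CCCP as control. PINK1 levels and mitochondrial localization were measured by immunofluorescence with mitochondrial, cell and nuclear markers after fixation, read by laser-scanning cytometry.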
# CtBP-E1A inh = blocks the CtBP interaction with E1A. AlphaScreen GST-E1A/His-CtBP binding, 1536-well; active compounds read low; control for the full effect not named in the record. activity change, % (no concentration beside the values). actives 0.49% (n = 340,000). AID 651724; in the data active means activity change below about -65%; inconclusive means about -30% to -65%; inactive means above about -30%; further: on the % scale 0 is the no-effect control and ±100 the full control effect
#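 GST-E1A and His-tagged CtBP (125 nM each as 5X stock) were preincubated with pin-transferred compound for 2 h at 37 °C in the dark, then glutathione donor and nickel acceptor beads were added for 1 h before AlphaScreen reading.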
# D2 PAM = human D2 receptor positive allosteric modulation; P14416; DiscoveRx D2 beta-arrestin cells, luminescence, 90 min; 100% = 57 uM dopamine signal; potentiation, % (test concentration not listed); actives 0.23% (n = 360,000); active = potentiation of 50% or more; inconclusive = 30% to 50%; inactive = 30% or less;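 further: compound concentration not given in the record; tested on top of an EC20 dose of dopamine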
#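 PathHunter D2 cells, attached overnight at 37 deg C, received compound in DMSO plus dopamine at EC20 (50 nM final) for 90 min at 37 deg C. Beta-arrestin recruitment was read as luminescence after 1 h with detection reagent at ambient temperature.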
# * = called active by the depositor; ? = inconclusive; . = not tested or not shown; & = joins results of further samples; [ ] = remark or other dose. No enrichment for hits. Share with any hit: about 3.7%.
SMILES,Six1-Eya2 inh,D2 ag,TRPV1 potentiator,Sfp inh,PINK1 expr mod,CtBP-E1A inh,D2 PAM
NC(=O)c1cnccn1,-5,0.8,-5,-24%&10%&25%,0.7%,7,-19
CN(C(=O)c1cncc(Br)c1)c1c(N)n(Cc2ccccc2)c(=O)[nH]c1=O,5,-2.0,19,.,0.2%,-5,2
O=C(CSc1nncc(=O)[nH]1)Nc1cccc([N+](=O)[O-])c1,0,0.0,11,-5%,-1.4%,1,1
O=C(NCC(=O)N1CCN(Cc2c(F)cccc2Cl)CC1)c1cccs1,6,0.6,.,.,-0.2%,-20,-13
CCc1nc2ccc(C(=O)N(C)Cc3ccccc3)cn2c1N(CC)CCN(C)C,5,-2.9,.,.,1.0%,0,-9
Cc1cccc(NC(=O)C2CCCC2)c1,5,-2.0,-7,21%,-1.0%[38.3 µM],5,-3
COc1ccc(Cn2nnnc2C(c2cc3ccc(OC)cc3[nH]c2=O)N2CCCCCC2)cc1 (stereo unspecified),-3,-0.7,-6,-25%,?,-19,-10
O=C(NN=C1CCCCCC1)c1cccs1,0,0.8,8,-4%,1.6%,6,9
CN(C)c1ccnc(-n2cccc2/C=N/OCc2cccc(F)c2)c1C#N,23,-0.2,-9,1%,1.5%,0,-10
CSc1ccc(/C=N\NC(=O)CNc2ccc(C)cc2)cc1,-8,0.6,-7,-7%,9.3%[38.3 µM],-5,12
CC(C)NC(=O)N(C)C[C@H]1Oc2ccc(NS(=O)(=O)c3cn(C)cn3)cc2C(=O)N([C@H](C)CO)C[C@@H]1C,-1,-3.3,.,.,0.6%,8,-9
COC(=O)c1ccc(Oc2c(C(F)(F)F)oc3c(CN4CCN(C)CC4)c(O)ccc3c2=O)cc1,-1,-1.6,-13,-11%,1.5%,-4,-15
Cc1cc(C)c2c(CN3CCN(c4ccccc4F)CC3)cc(=O)oc2c1,26,-1.4,.,.,0.7%,-2,-9
O=C(CCCC(=O)N(CC(=O)NC1CCCC1)Cc1ccccc1)Nc1ccccn1,-3,-4.0,4,3%,-3.2%,3,-3
COC(=O)c1sccc1NC(=O)CN(C)NS(=O)(=O)c1ccc([N+](=O)[O-])cc1,-3,-1.2,29,-15%,-0.2%,-2,13
O=C(CNC(=O)c1ccc(Cl)cc1Cl)NCc1ccccn1,5,1.9,6,.,-1.1%,-2,-13
COc1ccccc1-c1sc2cc3c(cc2c1-c1ccc2c(c1)OCO2)OCO3,-5,-1.3,-4,.,1.2%,-9,-6
Cc1ccnn1CC(=O)N/N=C/c1cccs1,4,-2.0,-1,24%,0.3%,-4,0
CC(=O)NC(CCS(C)(=O)=O)C(=O)Nc1nccs1 (stereo unspecified),-1,-1.3,6,-2%,2.0%,-1,2
CCc1c(C2(O)CCCCC2)[nH]c2c(C(=O)OC)cc(Cl)cc12,5,-0.4,-5,14%,-0.7%,6,-1
CCCCn1nnc(NC(=O)c2cc3ccccc3o2)n1,0,-4.3,-25,-2%,-1.9%,-1,-11
CC(=O)N1c2ccc(S(=O)(=O)NCCC(=O)Nc3ccccc3C)cc2CC1C (stereo unspecified),6,-0.9,-4,2%,-1.4%,1,-14
CC(C)[C@H](NC(N)=O)C(=O)Nc1ccc2c(c1)CCC2,5,-8.8,13,15%,1.5%,12,-7
COc1ccc(C2NC(=O)NC(O)(C(F)(F)F)C2C(=O)c2ccccc2)cc1OC (stereo unspecified),1,-1.3,-2,33%[activator],.,7,-2
CCOC(=O)c1sc(S(C)(=O)=O)c2c1CCc1conc1-2,-4,-0.7,8,-17%,-1.3%,-6,-4
CS(=O)(=O)N1N=C(c2ccc(Cl)cc2)CC1c1cccs1 (stereo unspecified),7,-0.8,-6,8%,.,-4,-8
CCOC(=O)/C=C1\NC(=O)CS1,-13,-4.9,2,-4%,0.7%,-3,16
O=C1CC(c2ccccc2)CC2=C1C=Nc1ccccc1N2 (stereo unspecified),3,-1.5,-9,-3%,3.3%,1,-11
COc1ccc(/C=C2\SC(=S)N(CC(=O)NC3CCS(=O)(=O)C3)C2=O)cc1 (stereo unspecified),14,-0.3,3,-8%,0.4%,14,-1
N#CCCN(C(=O)COC(=O)c1cc(S(=O)(=O)N2CCOCC2)ccc1Cl)c1ccc(F)cc1,2,-3.8,-1,.,1.0%,3,-10
O=C1CNC(=O)/C1=C/c1ccc(Br)cc1,2,-9.9,7,12%,-0.6%,7,-2
CC1CCCCC1NC(=O)c1cc2c(=O)n3ccccc3nc2n1C (stereo unspecified),13,-3.2,-5,10%,6.3%,.,-9
NS(=O)(=O)c1ccc(CCNC(=O)c2ccc(-c3ccccc3)cc2)cc1,3,-0.3,-2,5%,0.6%,1,0
C=CCn1c(Cc2ccc(OC)cc2)nnc1SCC(N)=O,-1,-0.5,5,11%,6.3%[38.3 µM],4,-2
CSC1=N/C(=C/c2ccc(-n3cncn3)cc2)C(=O)N1,-5,-0.5,2,-14%,1.5%,2,-5
Cc1csc(NC(=O)C2CC(=O)N(c3ccc4c(c3)OCCO4)C2)n1 (stereo unspecified),-1,12,-11,.,0.1%,2,3
COc1ccccc1C(=O)NC1CCN(C(=O)Nc2ccc(C)cc2)CC1,-1,0.7,-13,5%,0.8%,7,-6
FC(F)(F)c1cnc(N/N=C/c2ccncc2)c(Cl)c1,0,-7.9,-16,15%,1.5%,5,-11
CCCN1CCN(CCCNC(=O)c2cc3c(s2)-c2ccccc2OC3)CC1,1,-6.1,4,1%,-1.1%&8.7%,-9,-49
COc1ccc(C(=O)N/N=c2\oc3ccccc3cc2C(N)=O)cc1,?,4.5,-12,-7%,2.3%,-8,3
CN(C)/C(=N\S(=O)(=O)c1ccc(Br)cc1)c1ccccc1,-7,-3.3,11,17%,-0.7%,-5,-6
COc1ccc(/C=C/c2cc(-c3ccc(C)cc3)o[n+]2C)cc1,12,-0.7,8,19%,?,5,-14
O=C(COC(=O)c1cccc(S(=O)(=O)N2CCCCCC2)c1)NCc1ccc(Cl)cc1,7,3.2,16,.,?,0,3
CCS(=O)(=O)N1CCC(C(=O)NC2CCCCCCC2)CC1,7,-2.1,-2,-4%,-0.9%[38.3 µM],11,-7
CCCOC(=O)/C(=C\C=C\c1ccco1)NC(=O)c1ccccc1,3,-2.5,-21,50µM*,0.9%,-1,1

# Overlap with the part before: 2 entries, followed by the next part.
SMILES,Six1-Eya2 inh,D2 ag,TRPV1 potentiator,Sfp inh,PINK1 expr mod,CtBP-E1A inh,D2 PAM
CCS(=O)(=O)N1CCC(C(=O)NC2CCCCCCC2)CC1,7,-2.1,-2,-4%,-0.9%[38.3 µM],11,-7
CCCOC(=O)/C(=C\C=C\c1ccco1)NC(=O)c1ccccc1,3,-2.5,-21,50µM*,0.9%,-1,1
CC1(C)Cc2ccccc2-c2nc3n(c(=O)c21)CCS3,-2,4.0,12,25%,-1.3%,6,-2
Nc1c(Cl)c(Cl)nc(C(=O)N/N=C/c2cccnc2)c1Cl,-4,-0.8,-13,7%,-1.4%,-7,-7
Cn1c(=O)oc2cc(S(=O)(=O)N3CCCC(C(=O)NCc4cccs4)C3)ccc21 (stereo unspecified),0,0.0,.,9%,1.5%,24,-1
Cc1ccc(Nc2nc(N)nc(CSc3nnc(-c4ccncc4)o3)n2)cc1,0,-1.5,9,15%,5.4%,-1,9
COc1ccccc1OCC(O)CN1C(=O)NC(C)(C)C1=O (stereo unspecified),5,-3.2,0,-3%,0.1%,5,-3
COc1cc(C(=O)N/N=C(\c2ccccc2)c2ccccn2)cc(OC)c1OC,-17,-2.8,-21,-15%,?,?,-1
Cn1c(COc2ccc(Cl)cc2)nnc1SCC(=O)Nc1ccc2c(c1)CCC2,3,-1.9,-10,18%,5.3%,-2,-11
CCc1noc(C)c1C(=O)NNC(=O)COc1ccc(C)cc1,16,-1.3,4,.,0.7%,0,-3
COc1ccc(CNc2ccc([N+](=O)[O-])cc2C)cc1,-15,-2.1,-5,3%,0.1%,-15,-9
CC1CN(C)C(C)c2c1oc1ccc([N+](=O)[O-])cc21 (stereo unspecified),-6,-2.1,1,2%,0.8%,-1,-17
CC(C)S(=O)(=O)c1cnc(N2CCOCC2)nc1N,19,-4.2,21,7%,-2.6%,-1,-1
Cc1oc2ccc(OCc3c(F)cccc3Cl)cc2c1C(=O)O,0,-2.3,6,0%,0.8%,.,-8
CN(C)c1ccc(Nc2nc(N)c3ccccc3n2)cc1,?,2.5,-5,25µM*,-0.6%,?,-1
Cc1ccc(CNC(=O)CNC(=O)c2ccc(Br)o2)cc1,3,-1.2,10,13%,-0.7%,1,-3
O=C(O)CSc1c[nH]c2ccccc12,23,-1.7,3,17%,1.9%,0,24
COCCN(CCOC)c1nc(-c2ccccc2)nc2ccccc12,3,5.0,-19,5%,0.5%,14,7
Cc1c(Cl)cccc1-n1c(SCC(=O)N(C)Cc2ccccc2)nnc1-c1ccncc1,-6,-2.8,9,-1%,.,0,-20
CSc1ncccc1C(=O)NCCc1ccccc1,2,-1.9,-8,10%,1.9%,1,1
COc1ccc(CNC(=O)c2cc(=O)c3cc(C)ccc3o2)cc1,-1,2.8,8,8%,3.9%&1.5%,.,-16
C=CCNC(=O)CCCOc1ccc(C)cc1,1,-3.3,-38,12%,-0.8%,4,-7
CN(C)CCCN(C(=O)CCSc1ccccc1)c1nc2cc3c(cc2s1)OCO3,-8,-2.5,-10,-16%,-2.1%,-21,-9
O=C(NCC1CCCCC1)c1ccco1,4,-1.1,3,1%,6.3%[38.3 µM],6,-5
Cn1c(C(=O)N2CCN(c3ccccc3)CC2)cc2cc(Cl)ccc21,2,-2.4,11,-10%,1.2%,12,0
Cc1ccc(C(=O)OCC(=O)NC2CCS(=O)(=O)C2)c(C)c1 (stereo unspecified),1,2.4,.,.,0.4%,-2,0
COc1ccc(-n2c(=S)[nH]c3cc(C(=O)NC4CCCCC4)ccc3c2=O)c(OC)c1,-6,-6.7,12,19%,0.1%,4,-5
COc1ccc(-c2cc(-c3ccccc3)nc(N)n2)c(O)c1,-77*,-1.0,.,.,0.3%,-25,-1

# Compound activity as filed in PubChem BioAssay.
